RE007 growth inh = less growth of the S. pombe RE007 Vpr strain | AID 651644 | 360,000 compounds, 0.21% hits | Potency, µM (titrated, usually from 92.2 µM), for inactives: at the highest dose activity change, negative = less growth | S. pombe RE007 Vpr strain, BacTiter-Glo ATP luminescence, 24 h; control for the full effect not named in the record; active = well fitted falling curve with a large enough effect; inconclusive = small, poorly fitted or top-dose-only effect; inactive = no such curve, though single readings can be large or run the other way;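 further: on the % scale 0 is the no-effect control and ±100 the full control effect; nearly all actives have a fitted effect of over 50% in size; the assay follows cell death caused by Vpr and the record does not say whether a fall means rescue or toxicity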
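Fission yeast RE007 carrying one integrated HIV-1 vpr copy, seeded at OD 0.01 in PMG+AL medium with 23 nL pinned compound. Grown 24 h at 30 degrees; viability read by BacTiter-Glo luminescence after 5 min.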
SARS PLpro yeast = inhibitors of SARS-CoV papain-like protease in yeast | S. cerevisiae expressing SARS-CoV PLpro, growth rescue; control for the full effect not named in the record | Potency, µM (top dose mostly 32.9 µM), for the others: at the top dose activity, positive = growth rescue | 330,000 compounds, 0.19% hits; active means well fitted rising curve with a large enough effect; inconclusive means small, poorly fitted or top-dose-only effect; inactive means no such curve, though single readings can be large or run the other way; further: 0% is about no effect; nearly all actives have a fitted effect of over 55% in size; growth read by luminescence after 48 h
Cruzain noTriton = blocks cruzain activity in detergent-free assay. P25779. purified cruzain, Z-FR-AMC fluorescence, no detergent. Potency, µM, for the others: max response, negative = inhibition, actives largely listed as inhibitors. 200,000 compounds, 2.3% hits. AID 1476;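 further: plate controls were enzyme without inhibitor for no effect and buffer without enzyme for full effect; nearly all actives have a fitted effect of over 40% in size; top concentration of the series not given in the record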
Target sequence (P25779 123-467 limits assumed): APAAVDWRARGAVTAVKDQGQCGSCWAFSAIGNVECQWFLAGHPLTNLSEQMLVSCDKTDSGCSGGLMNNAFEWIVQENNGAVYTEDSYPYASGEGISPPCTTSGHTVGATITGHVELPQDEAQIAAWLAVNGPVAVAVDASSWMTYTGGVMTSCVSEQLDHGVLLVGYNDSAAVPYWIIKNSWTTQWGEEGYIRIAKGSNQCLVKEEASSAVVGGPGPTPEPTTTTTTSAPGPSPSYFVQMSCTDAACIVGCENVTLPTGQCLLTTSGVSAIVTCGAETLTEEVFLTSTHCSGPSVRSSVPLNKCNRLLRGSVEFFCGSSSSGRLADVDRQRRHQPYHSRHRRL
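Detergent-free condition (0.00005% Triton X-100) in acetate buffer pH 5.5 with DTT. 1.5 nM enzyme and compound were pre-mixed 15 min, then 2 uM Z-FR-AMC substrate added; reaction progress from fluorescence change between first and third reads (60 s).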
NS1 function inh = influenza NS1 inhibition; S. cerevisiae slowed by influenza A NS1, growth recovery by OD600; AID 2326; Potency, µM (top dose mostly 46.1 µM), inactives show at the highest dose activity, positive = more growth; 270,000 compounds, 0.4% hits; active means well fitted rising curve with a large enough effect; inconclusive means small, poorly fitted or top-dose-only effect; inactive means no such curve, though single readings can be large or run the other way; further: nearly all actives have a fitted effect of over 50% in size
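S. cerevisiae expressing influenza A NS1, grown in glucose, washed, then diluted 1:100 into pH 6.0 -URA galactose medium with 23 nl compound. Growth recovery read as OD600; NS1-free strain serves as control.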
Cruzain Triton = cruzain (T. cruzi) inhibition with detergent; purified cruzain, Z-FR-AMC fluorescence, 0.01% Triton; Potency, µM, inactives show max response, negative = inhibition, hits mostly inhibitors; 200,000 compounds, 0.43% hits;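 further: plate controls were neutral wells for no effect and buffer without enzyme for full effect; nearly all actives have a fitted effect of over 40% in size; top concentration of the series not given in the record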
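Z-FR-AMC hydrolysis (2 uM substrate) by cruzain (1.5 nM) monitored kinetically at ex 360/em 450 nm after 15 min room-temperature compound exposure; 0.01% Triton X-100, pH 5.5, 5 mM DTT.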
Marburg entry inh = blocks Marburg virus binding to or entry into cells; Marburg virus pseudotyped entry inhibition, cell reporter; control for the full effect not named in the record; about a third of the inactives were read at about 46 µM; Potency, µM (highest dose often 37.8 µM), for the others: at the highest dose activity change, negative = inhibition, hits mostly inhibitors; 300,000 compounds, 1.8% hits; AID 540276; active = well fitted inhibition curve with a large enough effect; inconclusive = small, poorly fitted or top-dose-only effect, or effect the other way; inactive = flat fitted curve, though single readings scatter; tested in HEK293 cells; about a fifth of its hits are not listed in these tables; further: on the % scale 0 is the no-effect control and ±100 the full control effect; luciferase read-out
Lassa entry inh = inhibitors of Lassa virus binding or cell entry | Lassa virus pseudotype entry inhibition, cell reporter; control for the full effect not named in the record | Potency, µM (doses to about 37.9 µM), without a hit: top-dose activity change, negative = inhibition, actives largely listed as inhibitors | 300,000 compounds, 1.2% hits; active means well fitted inhibition curve with a large enough effect; inconclusive means small, poorly fitted or top-dose-only effect, or effect the other way; inactive means flat fitted curve, though single readings scatter; tested in HEK293 cells; further: on the % scale 0 is the no-effect control and ±100 the full control effect; nearly all actives have a fitted effect of over 50% in size; luciferase read-out
2A StopGo = FMDV 2A StopGo reporter, luciferase signal; human cells with a luciferase reporter of 2A StopGo recoding; control for the full effect not named in the record; Potency, µM (series often up to 57.9 µM), for the others: top-dose signal change, negative = less light; 410,000 compounds, 1.2% hits; active = well fitted falling curve with a large enough effect; inconclusive = small, poorly fitted or top-dose-only effect; inactive = no such curve, though single readings can be large or run the other way; tested in HEK293T cells; further: on the % scale 0 is the no-effect control and ±100 the full control effect; nearly all actives have a fitted effect of over 45% in size; luciferase light after 4 h
The depositor's hits bear a star; ? = inconclusive; . = not tested or not shown; & = joins results of further samples; [ ] = remark or other dose. Unless noted, the call rests on the fitted dose curve; in most records, active means well fitted curve in the direction sought with a large enough effect; inconclusive means small, poorly fitted or top-dose-only effect, or another doubt; inactive means no such curve, though single readings can be large; an effect the other way counts as inactive or inconclusive. Potency means the concentration at half of the fitted maximal effect.

SMILES	RE007 growth inh	SARS PLpro yeast	Cruzain noTriton	NS1 function inh	Cruzain Triton	Marburg entry inh	Lassa entry inh	2A StopGo
COc1ccc2c(c1)C(CC(=O)NN)CCC2 (stereo not given)	21.5%	.	.	.	.	?	?	13.2%
COc1ccccc1NC(=O)CSc1cn(CC(=O)N2CCCC2)c2ccccc12	.	.	4.1%	.	-5.0%	.	11.6%[46.1 µM]	-1.5%
COc1ccc(C(=O)NC2CCCCCCC2)cc1OC	-15.1%	.	.	.	.	-9.9%	-1.1%	55.6%[activator]
COc1ccc(CCNC(=O)Nc2ccccc2[N+](=O)[O-])cc1	0.9%	0.6%	.	-1.7%	.	26.3%[46.1 µM]	5.1%	37.9%[activator]
COc1ccc(C(=O)N2CCN(c3nc(C4CC4)nc4sc(C)c(C)c34)CC2)cc1	7.4%	-4.1%	.	-19.8%	.	?	?	-10.5%
COc1cc(/C=C2/SC(=S)NC2=O)ccc1OS(=O)(=O)c1ccc(C)cc1	21.8%	-61.7%	4.4%	9.8%	?	?	-16.4%	28.2µM*
Cc1ccc(-c2cnc(NC(=O)CCC(=O)N(C)Cc3ccccc3)n2C)cc1	-20.1%	-1.8%	11.5%	2.8%	-2.0%	9.0%	27.5%	17.9%
CC(C)CCSc1nc2ccccc2[nH]1	?	-13.2%	.	.	.	.	?	8.9%
NC(=O)CSc1nnc2n(N)c(=O)c3ccccc3n12	0.3%	-1.4%	.	2.8%	.	.	.	-26.5%
CC(C)(C)c1nc(SCC(=O)c2ccccc2)c2ccccc2n1	-9.3%	-1.5%	.	1.8%	.	-28.0%[46.1 µM]	26.8%	5.7%
Cc1ccc(S(=O)(=O)C(CNC(=O)C(=O)NCCc2ccc(Cl)cc2)c2ccco2)cc1 (stereo not given)	.	.	10.8%	.	0.3%	.	-19.0%[46.1 µM]	-17.3%
CCn1c(SCC(=O)Nc2ccc(S(N)(=O)=O)cc2)nnc1-c1ccccc1OC	0.0%	2.3%	1.4%	1.8%	3.5%	2.2%	10.0%	-18.2%
CC(=O)Oc1ccc2c(C)c(CC(=O)N3CCN(C(=O)C4COc5ccccc5O4)CC3)c(=O)oc2c1C (stereo not given)	5.7%	-1.3%	.	-19.6%	.	-25.4%[46.1 µM]	?	?
COC(=O)COc1cccc(NC(=O)c2ccc(C)cc2)c1	-3.4%	-11.4%	-4.8%	-27.0%	1.1%	13.0%	-18.2%	-2.9%
COc1ccc(CN2CCCN(S(=O)(=O)c3ccc(Br)cc3)CC2)cc1	-7.8%	3.3%	.	-5.3%	.	?	?	-28.7%
CCOc1cc(CNc2ccc3c(c2)OCCO3)cc(Br)c1OC	-26.3%	-11.7%	-14.8%	8.1%	-2.5%	?	?	25.1µM*
CCCn1c(N)c(C(=O)CSc2nc3ccccc3c(=O)n2-c2ccc(OC)cc2)c(=O)[nH]c1=O	19.4%	0.0%	.	-1.5%	.	1.0%[46.1 µM]	12.4%	14.2%
CCN(CC(=O)Nc1ccc(OC)cc1)C(=O)c1ccc(OCc2c(C)noc2C)cc1	9.5%	.	.	.	.	1.0%[46.1 µM]	-28.0%	-7.8%
COc1ccccc1NC(=O)Nc1ccc(C(=O)N2CCCCC2)cc1	?	-1.5%	.	-1.8%	.	.	.	68.1%[activator]
CCOC(=O)c1sc(N)c(C#N)c1CSc1nc2ccc(OCC)cc2[nH]1	-10.0%	7.9%	?	?	-4.2%	0.3%	?	-18.0%
Fc1ccc(N2CCN(c3nc(-c4ccco4)cc(C(F)(F)F)n3)CC2)cc1	-16.4%	-2.2%	-1.7%	-35.5%	0.0%	-24.1%	-42.5%	?
O=C(CSc1nnc(-c2ccccc2Br)o1)Nc1cccc2ccccc12	-8.1%	-0.4%	-6.2%	8.6%	-7.3%	6.5%&6.5%	10.3%	3.6%
CCOc1ccc(N(CC(=O)Nc2cccc(C)c2C)S(=O)(=O)c2c(C)[nH]c(=O)[nH]c2=O)cc1	8.8%	-1.3%	.	-12.1%	.	.	.	-17.3%
CC1CCCC(NC(=O)CN2C(=O)NC(c3ccccc3)(c3ccccc3)C2=O)C1C (stereo not given)	-19.3%	5.5%	.	.	.	?	?	-10.4%
CCc1nnc(N/N=C/c2ccccc2F)n1N	-11.2%	-1.7%	.	.	.	?	.	17.8%
CC(=O)NNC(=O)N1Cc2ccccc2Oc2ccc(Cl)cc21	-4.7%[18.4 µM]	.	3.7%&0.9%	-10.1%	-7.9%&-6.2%	0.8%&0.8%&0.8%&-17.6%&0.8%&0.8%&0.8%	-14.6%	-13.6%&-13.0%
O=C(CN1CCCN(S(=O)(=O)c2ccc(F)cc2)CC1)Nc1ccccc1Br	5.2%	-0.9%	-0.5%	-39.2%	-9.4%	-17.2%	-8.7%	-19.9%
Cc1ccccc1-n1nc(C)c(N=O)c1N	-4.3%	8.3%	.	.	.	4.9%	-1.6%	-10.3%
CC(C)(C)c1ccc(S(=O)(=O)N2CCN(C(=O)c3ccc4c(c3)C(=O)N(Cc3ccncc3)C4=O)CC2)cc1	1.1%	2.2%	.	.	.	?	-2.5%	?
CC(C)(C)c1ccc(C(=O)Nc2nnc3n2CCS3)cc1	.	.	-3.8%	.	1.1%	.	?	16.0%
COc1ccc2c(CNCCc3ccco3)c(C(=O)O)n(Cc3ccc(F)cc3)c2c1	.	.	-2.0%	.	-3.1%	.	-19.2%[46.1 µM]	-2.7%
O=c1cc(N2CCCCC2)nc2n1CCCS2	4.4%	-8.8%	3.5%	-11.7%	0.3%	?	-18.3%	37.7%[activator]
COc1cc(/C=N/n2nnnc2N)ccc1OC(C)C	-6.0%	-2.8%	.	1.8%	.	?	-2.8%[46.1 µM]	-4.8%
Cc1c(C)c2ccc(OC(C)C(=O)NC3CCN(Cc4ccccc4)CC3)cc2oc1=O (stereo not given)	-10.8%	-5.3%	.	-4.5%	.	?	19.6%[46.1 µM]	-15.0%
CNC(=O)c1cc(NC(=O)N(CCC#N)CCN(C(=O)NC(Cc2ccccc2)C(=O)NC(CC(C)C)C(=O)NC)c2ccccc2)ccc1OC (stereo not given)	11.3%	.	.	.	.	0.3%	-2.5%	1.1%
Cc1ccccc1C(=O)OCC(=O)NCC1COc2ccccc2O1 (stereo not given)	13.4%	1.2%	.	.	.	0.2%	-1.1%	-2.9%
CCN(CC)CCn1cnc2c([nH]c3cccc(OC)c32)c1=O	16.4%	4.1%	?	-7.0%	-22.5%	-9.0%	1.3%	0.0%
O=C(/C=C/c1cccc([N+](=O)[O-])c1)NCCSCc1ccco1	-8.4%	-7.7%	17.9%	-7.9%	-2.9%	19.8%	7.4%	-21.6%
O=c1[nH]c(/C(Cl)=C/c2cc(Cl)ccc2O)nc2cc(Cl)ccc12	5.7%	-17.6%	-8.0%	-9.3%	-8.0%	21.3%	-1.5%	?
CCOC(=O)C1(CCOc2ccccc2)CCN(Cc2cccn2-c2cccnc2)CC1	-4.3%	0.9%	.	-2.9%	.	?	?	-26.0%
Cc1ccc(NS(=O)(=O)c2ccc(CCC(=O)N3CCOCC3)cc2)cc1	3.0%	3.0%	10.3%	-4.0%	4.3%	?	-1.9%	2.9%
O=C(C1CCCN(c2ncnc3c2nc2n3CCCCC2)C1)N1CCN(c2ccccc2F)CC1 (stereo not given)	3.0%	-6.7%	.	22.2%	.	?	?	0.4%
Cc1cc(C)n(-c2nncc(-c3ccccc3)n2)n1	13.7%	?	1.6%	-10.5%	-2.6%	3.4%	14.4%	32.4%[activator]
O=C(CNC(=O)c1cc(Cl)cc([N+](=O)[O-])c1)OCC(=O)N1CCCCC1	-14.0%	1.3%	.	.	.	1.7%	?	8.0%
CC(=NNC(=S)N1CCCCCC1)c1cccc2cccnc12	2.0%	.	.	.	.	?	?	21.1%
O=S(=O)(c1cccc2cccnc12)n1cnc2ccccc21	12.7%	-0.9%	-10.4%	-1.8%	0.0%	?	2.8%	-13.0%
CCOc1ccc(NC(=S)Nc2ccc(C)c([N+](=O)[O-])c2)cc1	-17.9%	10.7%	-10.2%	-3.1%	-4.4%	-4.3%	0.7%	-22.0%
CC(/C=N/NC(=O)C(O)c1ccccc1)=C\c1ccccc1 (stereo not given)	14.7%	-1.8%	9.9%	-13.8%	-3.8%	2.6%	6.6%	.
COc1ccc(NC(=O)CSc2ccc3nnc(CCNC(=O)c4ccccc4)n3n2)cc1	-13.2%	-0.9%	.	-5.0%	.	.	.	2.4%
COc1ccc(NC(=O)Cn2c(=O)c3cccn3c3ccccc32)cc1	.	.	?	.	-5.8%	.	-18.6%[46.1 µM]	-15.2%
COCCNC(=S)N1CCC(NC(=O)C23CC4CC(CC(C4)C2)C3)CC1	0.4%	-7.9%	.	.	.	-6.0%	-4.0%	-2.1%
COc1ccc(-c2cc(C(=O)Nc3ccc(S(=O)(=O)Nc4onc(C)c4C)cc3)c3ccccc3n2)cc1	2.7%	0.4%	.	0.9%	.	.	.	5.2%
CCNC(=O)COC(=O)CNC(=O)c1cc(Cl)cc([N+](=O)[O-])c1	-4.6%	1.3%	7.94µM*	?	7.94µM*	?	?	-4.1%
Cc1ccc(S(=O)(=O)N2CCC(C(=O)NCCN3CCCCCC3)CC2)cc1	-9.6%	-1.6%	8.0%	-9.1%	-12.1%	-4.6%	16.8%	-5.0%
CC(C)(C)c1csc(CS(=O)(=O)c2ccccn2)n1	-4.2%	-1.7%	.	4.4%	.	.	.	19.0%
Cc1cn(CC2COC(C)(C)O2)c(=O)[nH]c1=O (stereo not given)	1.4%	-1.8%	-12.2%	2.7%	6.8%	8.0%	6.9%	6.8%
CCOc1ccc(CCNC(=O)CS(=O)Cc2nc(-c3ccc(OC)cc3)oc2C)cc1OCC (stereo not given)	-5.4%	?	.	15.6%	.	.	.	-8.0%
Cc1ccc(O)c(N=Cc2cccs2)c1	-28.7%	-45.6%	3.9%	-9.7%	-1.0%	?	6.1%	17.5%
